VDR inhibitor – Inhibitors of the vitamin D receptor (VDR): qHTS; actives 0.93% (n = 400,000); Potency, µM, for the others: max response, negative = inhibition, most hits filed as inhibitors; VDR-SRC2-3 peptide fluorescence polarization, 2 h; active means well fitted inhibition curve with a large enough effect; inconclusive means small, poorly fitted or top-dose-only effect, or another doubt; inactive means no such curve, though single readings can be large or run the other way; further: series mostly up to about 120 µM
Target sequence (P11473 whole entry, looked up): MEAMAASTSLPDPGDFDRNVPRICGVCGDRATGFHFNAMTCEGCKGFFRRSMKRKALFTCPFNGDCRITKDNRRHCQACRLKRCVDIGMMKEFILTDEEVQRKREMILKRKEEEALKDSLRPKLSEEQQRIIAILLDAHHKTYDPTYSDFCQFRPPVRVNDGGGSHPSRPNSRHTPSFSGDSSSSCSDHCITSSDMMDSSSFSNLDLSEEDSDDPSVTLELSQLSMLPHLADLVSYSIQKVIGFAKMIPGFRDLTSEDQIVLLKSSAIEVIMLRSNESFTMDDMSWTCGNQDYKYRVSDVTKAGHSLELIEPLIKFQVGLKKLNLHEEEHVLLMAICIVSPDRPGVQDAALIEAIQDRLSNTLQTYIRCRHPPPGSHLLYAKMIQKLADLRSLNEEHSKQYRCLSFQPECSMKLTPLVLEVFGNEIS
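VDR–SRC2-3 interaction, FP format. Cmpds 23 nl via pintool, brief spin, 2 h ambient incubation.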
Active calls of the source: *; ? = inconclusive; & = joins results of further samples. On the % scale 0 is the no-effect control and ±100 the full control effect; potency means the concentration at half of the fitted maximal effect.

SMILES	VDR inhibitor
Cc1cc(O)c2c(C)c(CC(=O)N3C[C@H]4C[C@@H](C3)c3cccc(=O)n3C4)c(=O)oc2c1	-5%
COc1ccc(S(=O)(=O)Cc2ccc(C(=O)N3CCC4(CC3)OCCO4)o2)cc1	-1%
CCC(=O)Nc1ccccc1	7%
Fc1ccc(NC2=NCCS2)cc1Cl	-12%
CN1CCN(c2ccc([N+](=O)[O-])cc2Cl)CC1	-28%
Clc1cccc(Cl)c1CN1CCN(c2ccccc2)CC1	-9%
CC1CC[C@]2(NC1)OC1CC3C4CC=C5CC(O)CC[C@@]5(C)C4CC[C@]3(C)C1C2C (some centres not stated)	9%
CCOP(=O)(OCC)C(CC)N1CCOCC1 (configuration not stated)	8%
Cc1n[nH]c(C)c1CCN	1%
COC(=O)CC1(CC(=O)OC)C(=O)NC(=O)NC1=O	-5%
C[C@]12CCC3C(CC[C@H]4C[C@@H](O)CC[C@]34C)C1CC[C@@H]2N (some centres not stated)	9%
CN1C(=O)COc2c(C(=O)NC3CN4CCC3CC4)cc(Cl)cc21 (configuration not stated)	0%
COc1cc(CN2CCN(C(=O)Cc3ccccc3)CC2)cc(OC)c1OC	2%
CCOC(=O)[C@@]1(C#N)[C@@H]2C=CC(C(N)=O)=CN2[C@@H](C(N)=O)[C@@H]1c1cccc(Cl)c1	-2%
CCCCC(=O)N/N=C/c1c(O)n(CCC2=CCCCC2)c(=O)[nH]c1=O	-4%
O=c1[nH]c2ccccc2c(=O)n1-c1ccc(Cl)cc1Cl	-12%
CC(C)(O)C1C2OC(=O)C1[C@]1(O)C[C@H]3O[C@]34C(=O)O[C@H]2[C@]14C (some centres not stated) (tested in a mixture with another compound)	-1%
CC1C(=O)OC2CCN3CC4OC4(COC(=O)C(C)(O)C1(C)O)C23 (configuration not stated)	-20%
C[C@]12CCC3[C@@H](CC[C@H]4C[C@@H](O)CC[C@]34C)C1CCC2=O (some centres not stated)	-2%
CCC(=O)c1ccc(OCC(=O)N2CCN(CC(=O)Nc3ccc(C)cc3)CC2)cc1	1%
O=C1NC(=O)N(c2ccccc2)C(=O)/C1=C\c1ccccc1[N+](=O)[O-]	45µM*
CC[C@H](C)[C@H](NC(=O)CN)C(=O)N[C@@H](CC(C)C)C(=O)NCC(=O)N[C@@H](Cc1ccccc1)C(=O)N[C@H](C(=O)N[C@@H](Cc1ccccc1)C(=O)N[C@H](C(=O)N[C@@H](CC(C)C)C(=O)O)[C@@H](C)O)C(C)C	0%
CCOc1ccc(N=Cc2c(O)n(-c3cc(C)cc(C)c3)c(=O)[nH]c2=O)cc1	-7%
O=C(O)c1cccc2c1NC(C(=O)O)C1CC(Sc3ccccc3[N+](=O)[O-])C(Cl)C21 (configuration not stated)	-68%
Cc1ccc(S(=O)(=O)N2CCCCC2)cc1NC(=O)CN1CC=C(c2ccccc2)CC1	0%
CCCCC/C=C\C/C=C\C/C=C\C/C=C\CCCC(=O)NCCCC(=O)O	28µM*
CCOC(=O)[C@]12Cc3cc(OC)ccc3[C@H]1N(Cc1ccccc1)C(=O)c1ccccc12	-23%
FC(F)(F)c1ccccc1N1CC1c1ccncc1 (configuration not stated)	-8%
CSCCC(N=Cc1c(O)n(-c2ccc(F)cc2)c(=O)[nH]c1=O)C(=O)OC(C)(C)C (configuration not stated)	-2%
CCN(CC)C(=O)c1ccc(NC(=O)c2sccc2-c2ccccc2)cc1	-2%
CNCCc1c(C)n[nH]c1C	-8%
CCOP(=O)(OCC)O/C(=C/Cl)c1ccc(Cl)cc1Cl	3%
CCOC(=O)C(O)(c1cn(C)c2ccccc12)C(F)(F)F (configuration not stated)	0%
O=c1c2ccccc2nc(Cc2cccc([N+](=O)[O-])c2)n1-c1ccc(O)cc1	-1%
CC(C)(C)[C@]1(O)C[C@@H]2OC(=O)C[C@@]23C(=O)O[C@@H]2OC(=O)[C@H](O)[C@]213	-10%&1%&14%
CCOc1cc(C=C2C(=O)NC(=S)NC2=O)ccc1O	?
C[C@]12CCC3C(CC[C@H]4C[C@H](O)CC[C@]34C)C1C[C@H](O)[C@H]2O (some centres not stated)	-4%
COc1ccc(C(C)=O)cc1Cc1c(O)[nH]c(=S)[nH]c1=O	?
COc1cc2c3cc1Oc1c(OC)c(OC)cc4c1[C@H](Cc1ccc(cc1)Oc1cc(ccc1O)C[C@H]3N(C)CC2)N(C)CC4	12%
O=[N+]([O-])c1ccc(N2CCNCC2)c(Cl)c1	-15%
CN1CCN(S(=O)(=O)c2cnc(Cl)c(Br)c2)CC1	-17%
O=c1[nH]c(=O)n(Cc2ccccc2)c(O)c1C=NCCN1CCOCC1	20%
CCc1ccc(CNCCc2c[nH]c3ccccc23)cc1	-3%
COc1ccc(N2C(=O)NC(=O)/C(=C\c3cn(C)c4ccccc34)C2=O)cc1	-4%
COC(=O)C1(O)CC2OC1(C)n1c3ccccc3c3c4c(c5c6ccccc6n2c5c31)C(=O)NC4 (configuration not stated)	1%
O=c1[nH]c(=O)n(Cc2ccccc2Cl)c(O)c1/C=C1/C=CC=N1	24%
Cc1ccc(Cn2cc(C=O)c3ccccc32)cc1	3%
C/C=C1\CN2[C@H]3C[C@@]45c6ccccc6N(C)[C@H]4[C@@H]2CC1C3[C@H]5O (some centres not stated)	-4%
CN1CN(c2ccccc2)C2(CCN(CCCSc3ccccc3NC(=O)/C=C/c3ccccc3)CC2)C1=O	10%
Cc1ccc(OP(=O)(NCc2ccccc2)Oc2ccc(C)cc2)cc1	-9%

Laid out differently: results already given
Molecule: Cc1ccc(Cn2cc(C=O)c3ccccc32)cc1
  VDR inhibitor: 3%

Molecule: C/C=C1\CN2[C@H]3C[C@@]45c6ccccc6N(C)[C@H]4[C@@H]2CC1C3[C@H]5O (some centres not stated)
  VDR inhibitor: -4%

(next part)
SMILES	VDR inhibitor
CCCCCCCCn1sccc1=O	3.5µM*
CC(C(O)c1ccccc1)N(C)CCn1cnc2c1c(=O)n(C)c(=O)n2C (configuration not stated)	2%
CCCNC(=O)N1[C@H]2CC[C@@H]1C(C(=O)OC)=C(c1ccc(OC(F)(F)F)cc1)C2	0%
CC(C)(C)n1cc(C(=O)c2ccccc2)cc1-c1ccccc1	-24%
Cc1ccc(-n2c(/C=C/c3cccc(C(F)(F)F)c3)nc3ccccc3c2=O)cc1	9%
NC(N)=Nc1ccc2[nH]c3c(c2c1)C[C@@]1(O)[C@H]2Cc4ccc(O)c5c4[C@@]1(CCN2CC1CC1)C3O5 (some centres not stated)	-13%
O=c1c2ccccc2nc(/C=C/c2ccco2)n1-c1ccccc1O	-26%
CSCCC(NC(=O)CCC(=O)OC1CC[C@H]2[C@@H]3CC[C@H]4CC(=O)CC[C@]4(C)[C@H]3CC[C@]12C)C(=O)O (some centres not stated)	-11%
CCC1(Oc2ccccc2)C(=O)NC(=O)NC1=O	-3%
CCCCNC(=S)N1CCn2cccc2C1c1cccnc1 (configuration not stated)	-3%

Given with each value named: entries from further up
CCCNC(=O)N1[C@H]2CC[C@@H]1C(C(=O)OC)=C(c1ccc(OC(F)(F)F)cc1)C2
- VDR inhibitor: 0%
O=c1c2ccccc2nc(/C=C/c2ccco2)n1-c1ccccc1O
- VDR inhibitor: -26%
CC(C)(C)n1cc(C(=O)c2ccccc2)cc1-c1ccccc1
- VDR inhibitor: -24%
CC(C(O)c1ccccc1)N(C)CCn1cnc2c1c(=O)n(C)c(=O)n2C (configuration not stated)
- VDR inhibitor: 2%

Of the compounds above, 4 contain a CF3 group.
SMILES	VDR inhibitor
FC(F)(F)c1ccccc1N1CC1c1ccncc1 (configuration not stated)	-8%
CCOC(=O)C(O)(c1cn(C)c2ccccc12)C(F)(F)F (configuration not stated)	0%
CCCNC(=O)N1[C@H]2CC[C@@H]1C(C(=O)OC)=C(c1ccc(OC(F)(F)F)cc1)C2	0%
Cc1ccc(-n2c(/C=C/c3cccc(C(F)(F)F)c3)nc3ccccc3c2=O)cc1	9%

Other records:
SMILES	VDR inhibitor
CC1C(OC(=O)CCC(=O)NC(C)(C)CO)O[C@H]2OC3(C)CC[C@H]4[C@H](C)CCC1C24OO3 (some centres not stated)	28%
Cn1c(O)c(C=NCCN2CCN(C(=O)c3ccccc3)CC2)c(=O)n(C)c1=O	-3%
O=C(O)C1=CC2c3ccccc3C1c1ccccc12	-14%
CC1CCN(CC(=O)c2ccc3c(c2)OCCO3)CC1	-5%
Oc1cc[c]([Hg][Cl])cc1	4µM*
CN1C(=O)C(c2ccc([N+](=O)[O-])cc2[N+](=O)[O-])C(=O)N(C)C1=O	-1%
Cc1ccc(S(=O)(=O)CC(C)(O)C(=O)Nc2cccc(C(F)(F)F)c2)cc1 (configuration not stated)	3%

From PubChem

The list is partial; rates above refer to the full screens.
